Screening results as filed in PubChem.
FGF22 binding = shifts melting point of recombinant human FGF22; Q9HCT0; AID 651658; calls only at 9.99 µM; 340,000 compounds, 1.5% hits; recombinant FGF22 thermal shift, SYPRO orange fluorescence; percent of sucrose octasulfate shift, DMSO zero;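 active = melting point raised past a set limit in the mean and every replicate; inconclusive = no clear call; three in four hits are not shown here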
Vif TR-FRET = inhibitors of Vif binding to APOBEC3G peptide, primary screen, biochemical, TR-FRET, GST-Vif 1-94, biotin-A3G peptide, dose response retest (AID 1117319). one-dose inhibition, %; IC50 in µM for titrated hits. 260,000 compounds, 0.57% hits. TR-FRET GST-Vif / biotin-A3G peptide binding; higher % means a stronger effect; test concentration not given here; strong numbers were not always called active;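 active = above the screen mean plus three standard deviations and confirmed in dose response; inconclusive = results disagree or hit not tested in dose response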;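 also: Vif residues 1-94 fused to GST binding biotinylated APOBEC3G peptide 110-148; 0% = full assay without inhibitor and 100% = GST in place of GST-Vif; retest series ran down from 100 µM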
Ecoli growth = inhibitors of Escherichia coli growth | OD600, 23 h; stronger effect = lower value | OD600 absorbance (concentration not given with the values) | 330,000 compounds, 0.21% hits | AID 1053175;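 active = OD600 absorbance below the run mean of sample wells minus 3.6 SD, in any replicate, cut at about 0.56 in these data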;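 also: stock transfer was 300 nL into about 60 µL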
RanGTP-Impb inh = inhibitors of RanGTP-importin-beta interaction, primary screen, biochemical, FRET, CFP-Ran, YFP-importin-beta, homogeneous; cell-free CFP-Ran/YFP-importin-beta FRET ratio; inhibition, % (test concentration not listed); 300,000 compounds, 1.1% hits;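 active = most replicates above 15%; inconclusive = exactly half above 15%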;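 also: 0% = DMSO wells and 100% = Ran loaded with GDP instead of GTP; wells of about 40 µL received 100 nL stock; the first replicate is given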
UCH37 DUB inh = inhibitors of human deubiquitinating enzyme UCH37; inhibition, % (no concentration beside the values); purified proteasome/UCH37, Ub-AMC cleavage fluorescence; 330,000 compounds, 0.33% hits; Q9Y5K5;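 active = mean of two replicates above 20%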;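 also: 0% = compound-free wells with enzyme and 100% = wells lacking proteasome; stock transfer was 100 nL into about 20 µL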
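Signal – fluorescence, ex 355 nm, em 460 nm · System – Proteasome-bound UCH37 · Input – 0.15 nM proteasome as dispensed · Timing – 30 min preincubation with enzyme, 25 min cleavage at room temperature · Read-out basis – percent inhibition of cleavage signal versus uninhibited and no-proteasome wells · Medium – Tris-HCl pH 7.4 with ATP-MgCl2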
AF4-AF9 inh = MLL-AF4/AF9 protein interaction inhibition; P42568; AlphaScreen, biotin-AF4 peptide binding to FLAG-AF9; inhibition, % at 10 µM; 350,000 compounds, 0.47% hits; AID 651704;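 active = every replicate reaching a set inhibition limit, whatever the replicate mean, cut at about 25% in these data; inconclusive = mean inhibition reaches that limit but some replicates miss it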;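 also: 0% = plate neutral control median and 100% = total signal loss; the record names both 10 and 1 µM as test concentration; the first replicate is given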
Target sequence (P42568 whole entry, looked up): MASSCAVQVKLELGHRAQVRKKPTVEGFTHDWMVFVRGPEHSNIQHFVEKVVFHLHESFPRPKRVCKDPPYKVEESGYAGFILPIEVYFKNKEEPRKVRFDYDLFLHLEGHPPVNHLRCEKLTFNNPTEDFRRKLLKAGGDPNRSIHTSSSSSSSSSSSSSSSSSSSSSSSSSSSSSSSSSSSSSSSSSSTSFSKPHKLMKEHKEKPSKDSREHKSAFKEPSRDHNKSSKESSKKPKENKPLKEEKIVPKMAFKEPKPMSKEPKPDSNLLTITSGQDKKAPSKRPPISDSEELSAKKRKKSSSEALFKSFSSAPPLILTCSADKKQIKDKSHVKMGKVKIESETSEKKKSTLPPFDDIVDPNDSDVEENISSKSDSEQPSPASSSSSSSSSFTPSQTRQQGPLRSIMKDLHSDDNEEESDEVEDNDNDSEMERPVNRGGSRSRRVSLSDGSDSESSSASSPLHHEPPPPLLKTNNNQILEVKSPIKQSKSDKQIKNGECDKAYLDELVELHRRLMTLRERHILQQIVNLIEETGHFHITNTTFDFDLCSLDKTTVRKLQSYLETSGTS
HNF4A DNA FP = change in binding of human HNF4 alpha to DNA; activity change, % at 10 µM; AID 1224865; P41235; 360,000 compounds, 0.3% hits; HNF4a-FITC DNA binding, fluorescence polarization, 1 h; in the data active = activity change above about 30%, passing the limit was not always enough;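 also: controls were the assay level and a saturating level of protein; the project sought stronger binding though the title names inhibitors; some compounds called inactive have numbers as strong as hits; positive values seem to mean higher polarization but the record does not say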
Target sequence (P41235 whole entry, looked up): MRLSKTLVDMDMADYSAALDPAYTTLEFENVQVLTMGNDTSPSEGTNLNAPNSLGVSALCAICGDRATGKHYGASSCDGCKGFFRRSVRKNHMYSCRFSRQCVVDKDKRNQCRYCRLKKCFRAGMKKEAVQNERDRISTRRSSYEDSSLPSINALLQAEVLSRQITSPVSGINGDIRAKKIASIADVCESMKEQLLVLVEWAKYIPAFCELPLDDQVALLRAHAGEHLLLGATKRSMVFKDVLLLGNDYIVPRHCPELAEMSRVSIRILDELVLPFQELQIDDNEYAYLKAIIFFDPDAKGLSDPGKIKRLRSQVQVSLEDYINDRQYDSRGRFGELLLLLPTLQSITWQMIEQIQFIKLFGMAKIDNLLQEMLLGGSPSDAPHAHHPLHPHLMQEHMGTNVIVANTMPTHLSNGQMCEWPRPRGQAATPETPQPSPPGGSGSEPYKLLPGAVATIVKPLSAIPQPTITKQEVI
* = called active by the depositor; i = inactive; ? = inconclusive; . = no result given. A portion of the library; count on the stated rates, not on these rows.

mol | FGF22 binding | Vif TR-FRET | Ecoli growth | RanGTP-Impb inh | UCH37 DUB inh | AF4-AF9 inh | HNF4A DNA FP
CN(c1ccccc1)S(=O)(=O)c1cccc(NC(=O)CCNC(=O)c2ccc(Cl)cc2)c1 | i | 0.5% | 0.648 | . | 0.3 | -19.2 | 1.1
Cc1ccc(S(=O)(=O)N(C)C)cc1NC(=O)c1sccc1Cl | i | 13.5% | 0.708 | ? | -0.9 | -2.4 | 2.6
COc1cc(OC)c(C(=O)Nc2cc(S(=O)(=O)N3CCOCC3)ccc2N2CCN(C)CC2)cc1OC | i | . | 0.729 | . | 4.8 | -62.3 | 7.5
CCCn1c(C(C)Nc2nc(-c3ccc(C)cc3)cs2)nc2cc(Cl)c(N3CCCCC3)cc21 (centres undefined) | i | . | 0.715 | 1.3 | 0.3 | -1.1 | 5.2
N/C(=N\OC(=O)Oc1ccccc1)c1ccc(Cl)cc1 | . | 4.3% | 0.708 | -3.2 | -0.1 | . | 1.2
CC(C)OCCCNC(=O)COc1ccc2oc3c(c2c1)CCCC3 | i | 1.4% | 0.689 | 4.4 | -3.7 | -3.9 | 1.7
O=C(c1cc(-c2ccccc2O)on1)N1CCCC1 | i | 1.9% | 0.769 | ? | 6.3 | -8.5 | 1.4
O=C(COc1ccccc1)Nc1c2c(nn1-c1ccccc1)CS(=O)(=O)C2 | i | . | 0.723 | -0.3 | -0.3 | -2.5 | 0.0
COc1ccc(N2CCN(C(=O)c3c(-c4ccccc4)noc3C)CC2)cc1 | i | 31.1µM* | 0.713 | ? | 3.8 | -11.2 | -7.2
NS(=O)(=O)c1cccc(NS(=O)(=O)c2ccc(/C=C/C(=O)OCC(=O)c3ccccc3)cc2)c1 | . | 69.0% | 0.704 | -2.1 | 2.0 | 0.0 | -3.6
O=C(c1ccc2c(c1)OCCO2)N1CCN(Cc2ccccc2)CC1 | . | -6.4% | 0.707 | -4.6 | 1.7 | . | -2.5
CC(C)C(=O)NC(Nc1ccccc1F)C(Cl)(Cl)Cl (centres undefined) | . | -1.1% | 0.745 | 3.3 | -0.4 | . | 0.7
CCCNC(=O)C1(C)CCN(Cc2cc(-c3ccccc3)on2)C1 (centres undefined) | i | . | . | . | . | -0.4 | 3.1
CSc1ccccc1OCc1cc(C(=O)N2CCC(Oc3cccnc3)CC2)no1 | i | -10.4% | . | 5.1 | . | 1.1 | 0.1
Cc1cc([N+](=O)[O-])cnc1NC(C)c1ccccc1 (centres undefined) | . | 0.5% | 0.663 | -2.1 | 6.3 | . | -10.6
CC(C)[C@H](NC(=O)C1CCCC1)c1nc2ccccc2[nH]1 | i | -3.5% | 0.724 | 2.0 | 5.3 | -1.4 | 1.0
CN(C)CCN(C(=O)c1ccc(N2C(=O)CCC2=O)cc1)c1nc2cc3c(cc2s1)OCCO3 | i | . | 0.701 | 2.0 | 3.0 | . | .
C[C@]12CCC3C(CC[C@H]4CC(O)CC[C@]34C)C1CC/C2=N/NC(=O)c1ccncc1 (some centres undefined) | i | . | . | ? | . | -2.2 | -0.5
COc1ccc(C2OCC3(CO2)SC(=O)NC3=O)cc1OC (centres undefined) | i | -10.1% | 0.688 | 3.1 | 4.0 | -0.4 | 2.4
CCn1nc(C)cc1C(=O)Sc1cccc(Cl)c1 | i | -19.7% | 0.669 | 0.0 | 6.4 | 3.9 | 1.9
Cc1oc(-c2ccccc2F)nc1CS(=O)CC(=O)NCc1ccccc1 (centres undefined) | i | -9.8% | 0.701 | ? | 1.7 | 1.2 | -1.5
Cc1cc2c(cc1S(=O)(=O)NCc1ccc(N(C)C)cc1)OCC(=O)N2 | i | . | 0.799 | -0.9 | 6.2 | 12.8 | 3.8
COc1ccc2cc(C(c3nnnn3Cc3ccccc3)N3CCCCCC3)c(=O)[nH]c2c1 (centres undefined) | . | 2.7% | 0.702 | 4.8 | -3.4 | . | -3.0
Clc1ccc(CNCCCSc2ncccn2)cc1Cl | i | . | 0.659 | -1.2 | -1.3 | 1.4 | 3.1
S=C1c2ccccc2CN1c1ccccc1 | . | 3.9% | 0.681 | 3.5 | 1.5 | . | 2.0
Cc1ccc(NC(=O)CCSc2nnc(-c3ccco3)o2)cc1 | . | 2.0% | 0.698 | -1.2 | 0.4 | . | 2.3
C/C(=N/OCO/N=C(/C)c1ccc(F)cc1)c1ccc(F)cc1 | i | 10.9% | . | 0.1 | . | -0.7 | 1.9
O=C(O)C1CCCCC1C(=O)Nc1ccc(S(=O)(=O)N2CCOCC2)cc1 (centres undefined) | i | . | . | . | . | 19.9 | -0.9
COc1ccc(NC(=O)C2C3CCC(O3)C2C(=O)O)c(C)c1 (centres undefined) | i | . | . | -2.2 | . | 1.2 | -3.8
C#CCOCCOCCOCCNc1nc(N2CCN(C(=O)[C@H](CCCCN)n3cc(CN)nn3)CC2)nc(N2CCN(C(=O)[C@H](CCC(=O)O)n3cc([C@@H](N)CCSC)nn3)CC2)n1 | i | -0.5% | 0.702 | . | 1.2 | 1.3 | 4.0
Cc1nnc(SCC(=O)N2CCN(c3ccccc3)CC2)n1-c1ccccc1 | . | 5.7% | 0.653 | -4.0 | 1.0 | . | 1.4
C=CCN(CC=C)Cc1cc(=O)oc2ccccc12 | i | . | . | . | . | 0.5 | 0.2
CC(C)n1nc(Cc2cccc3ccccc23)c(C#N)c1N | i | . | 0.646 | ? | -2.1 | -4.4 | 2.3
c1ccc(-c2cnnc3ccccc23)cc1 | i | . | 0.612 | 1.8 | 0.3 | . | -0.7
Nc1ncc(-c2ccccc2)c(-c2ccc(O)cc2O)n1 | i | 2.9% | 0.591 | 10.2 | 1.2 | 7.6 | 0.4
OCC1OCOC2C(CO)OCOC12 (centres undefined) | i | . | . | . | . | -3.2 | -0.5
O=C(COC(=O)Cc1ccccc1F)Nc1ccc2c(c1)OCO2 | i | 1.9% | 0.718 | -1.8 | 1.1 | 0.1 | 3.9
O=C(Nc1ccc(Cl)cc1)N1CCSC1=NCc1ccccc1 | i | -1.0% | 0.621 | -1.0 | 5.6 | 2.4 | -2.3
Cc1ccc(S(=O)(=O)N2C[C@H]3C(=O)C[C@@H](c4ccccc4)N(S(=O)(=O)c4ccc(C)cc4)[C@H]3C[C@H]2c2cccc(C)c2)cc1 | i | . | . | . | . | -3.0 | -3.6
CC(C)(C)OC(=O)N1CCC(C(=O)N[C@@H](Cc2c[nH]c3ccccc23)C(=O)O)CC1 | i | -2.2% | 0.679 | -1.3 | 1.5 | -0.5 | 2.1
COc1c2ccc(OCC/C(C)=C/C(=O)C=C(C)C)cc2nc2occc12 | i | . | . | . | -1.7 | -15.6 | -1.7
CCOC(=O)c1c(S(=O)(=O)N2CCCC(C(=O)Nc3cccc(C)n3)C2)c(C)n(C)c1C (centres undefined) | i | 0.1% | 0.712 | -0.5 | 1.6 | -0.2 | -1.5
COc1cccc(NC(=O)CSc2nnc(-c3cccs3)n2C)c1 | . | -7.3% | 0.728 | -1.8 | -0.2 | . | 3.6
C=CCNC(=S)NNC(=O)c1cc(C)nc2ccccc12 | . | 10.1% | 0.634 | 6.9 | 3.4 | . | 0.2
O=C(Cn1cnc2c(nnn2Cc2ccc(F)cc2)c1=O)Nc1ccccc1 | i | 22.4% | 0.711 | 3.1 | -1.1 | 14.2 | 2.7
Cc1cccc(CNC(=O)c2ccccc2NC(=O)C2=CSCCO2)c1 | i | . | 0.718 | 2.4 | 4.1 | -1.2 | -1.7
Cc1ccc(-c2nc3ccccc3s2)cc1NC(=O)c1ccc2c(c1)OCO2 | . | -1.4% | 0.73 | -0.2 | -9.1 | . | -2.9
COc1ccc(C)cc1NC(=O)c1ccc2c(c1)C(=O)N(Cc1ccncc1)C2=O | i | . | 0.696 | . | -2.5 | -0.6 | 3.9
CCNC(=O)c1ccccc1-c1nc(-c2ccccc2)no1 | i | 6.9% | 0.636 | 2.3 | 3.1 | 0.2 | 0.2
Cc1ccccc1-c1nnc(SCC(=O)N2CCCC2)o1 | i | . | 0.66 | ? | 1.5 | 3.6 | -2.3
COC(=O)Cn1cnc2c(nnn2-c2ccc(C)cc2)c1=O | . | 5.5% | 0.733 | 3.6 | 4.3 | . | 5.3
Clc1ncc(Cn2cccn2)s1 | i | -6.2% | 0.679 | -5.0 | 2.4 | -2.3 | 3.1
CC(=O)Nc1cc(C(=O)N2CCc3ccccc3C2)ccc1Sc1ccc(Cl)cc1 | i | -5.9% | 0.684 | -2.3 | 3.9 | 5.8 | 1.8
CSc1ccc(CN2CCCC(CO)(Cc3ccccc3)C2)cc1 (centres undefined) | i | 9.9% | 0.693 | ? | 5.2 | 3.9 | -0.2
CCCCCn1c(SCC(=O)OCC)nc2cc(C(=O)NCc3ccco3)ccc2c1=O | . | 1.5% | 0.683 | 5.3 | 1.1 | . | 1.4
N#C/C(=C\c1c(N2CCOCC2)nc2ccccn2c1=O)C(=O)NC1CCS(=O)(=O)C1 (centres undefined) | i | -4.1% | 0.678 | 3.2 | -1.2 | -1.1 | -1.5
O=C(N/C(=C\c1ccc(F)cc1)C(=O)N1CCOCC1)c1ccccc1 | i | . | 0.67 | 3.7 | 0.9 | 3.2 | 0.8
Cc1ccc(-c2nnc(N3CCOCC3)c3ccccc23)cc1S(=O)(=O)NCC1CCCO1 (centres undefined) | . | -7.8% | 0.723 | 2.0 | 0.4 | . | -0.8
CC12CCC(C(=O)N(NC(=O)c3ccccc3O)C1=O)C2(C)C (centres undefined) | i | 6.3% | 0.695 | 1.7 | -22.1 | -1.1 | -11.9
CCCNC(=O)C(Cc1ccccc1C)NC(=O)c1ccc(C#N)cc1 (centres undefined) | i | . | 0.687 | . | -0.1 | -0.2 | 4.0

Continued.
mol | FGF22 binding | Vif TR-FRET | Ecoli growth | RanGTP-Impb inh | UCH37 DUB inh | AF4-AF9 inh | HNF4A DNA FP
COc1cc2c3nc4n(c(=O)c3n(CC(=O)NCC3CCCO3)c2cc1OC)CCS4 (centres undefined) | i | 4.5% | 0.711 | 1.2 | -120.3 | -0.5 | 0.2
COc1ccc(C)cc1N1CC(C(=O)Nc2cccc(C(=O)NC3CC3)c2)CC1=O (centres undefined) | i | -7.5% | . | . | . | -5.1 | 4.7
Cc1cc(NC(=O)CCN2CC(C)OC(C)C2)ccc1Br (centres undefined) | i | . | 0.662 | 2.4 | 2.6 | -0.1 | 3.1
O=C(CN1CC(c2ccccc2)CC1=O)Nc1ccc2c(c1)OCO2 (centres undefined) | i | 17.4% | 0.705 | 6.8 | 2.6 | 1.0 | -4.5
Cc1ccc(C(C)C)c(OC(=O)/C=C/c2ccccc2)c1 | . | 4.9% | 0.737 | -2.9 | 4.1 | . | 5.5

Records listed so far shown as hits in Vif TR-FRET:
mol | FGF22 binding | Vif TR-FRET | Ecoli growth | RanGTP-Impb inh | UCH37 DUB inh | AF4-AF9 inh | HNF4A DNA FP
COc1ccc(N2CCN(C(=O)c3c(-c4ccccc4)noc3C)CC2)cc1 | i | 31.1µM* | 0.713 | ? | 3.8 | -11.2 | -7.2

Taken from above:
Result for c1ccc(-c2cnnc3ccccc23)cc1 under Ecoli growth: 0.612
Result for COc1ccc(C)cc1N1CC(C(=O)Nc2cccc(C(=O)NC3CC3)c2)CC1=O (centres undefined) under HNF4A DNA FP: 4.7
Result for N#C/C(=C\c1c(N2CCOCC2)nc2ccccn2c1=O)C(=O)NC1CCS(=O)(=O)C1 (centres undefined) under Vif TR-FRET: -4.1%
